# Screens as filed in PubChem BioAssay.
# Mtb growth – Mycobacterium tuberculosis H37Rv growth inhibition, cell based, confirmatory dose response (AID 1949); most inactive calls were filed without a number and no value below 0 was filed; inhibition, % at 10 µg/mL; hits with a dose series show IC50 in µg/mL; M. tuberculosis H37Rv growth inhibition; 100,000 tested, 1.6% active;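 active means confirmed in a dose series; inconclusive means about 50% or more but not retested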;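 further: bacteria grown 7 days with compound before Alamar blue readout; 0% = untreated bacteria and 100% = reference antibiotic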
# Starred values were filed as active, the others as inactive; i = inactive; ? = inconclusive. A portion of the library; count on the stated rates, not on these rows.
SMILES	Mtb growth
COc1ccc(CCNC(=O)CSc2nnnn2-c2c(C)cccc2C)cc1OC	1%
Cc1cc(C)c(S(=O)(=O)n2cc(Br)cn2)c(C)c1	8%
O=C1OCCC1Sc1ccc(Cl)cc1 (stereo not given)	i
COc1ccc(-n2c(SCC(=O)NCc3ccccc3)nnc2-c2ccncc2)cc1	i
CCOC(=O)c1ccccc1NC(=O)C1CC(=O)N(c2ccc(OC)cc2)C1 (stereo not given)	i
O=S(=O)(Nc1ccc(Br)cc1)c1ccccc1C(F)(F)F	i
N#Cc1ccccc1NC(=O)CCCc1ccccc1	i
Nc1nnc(CC(=O)N2CCOCC2)s1	i
O=C(Nc1cccnc1)c1cc2n(n1)C(C(F)(F)F)CC(c1ccco1)N2 (stereo not given)	i
CCOc1ccc(NC(=O)C(C)Sc2nnc(-c3ccccc3)n2C)cc1 (stereo not given)	i
O=C1OCC2=C1C(c1ccc3c(c1)OCO3)Sc1ccccc1N2 (stereo not given)	i
CCOC(=O)c1cc(NC(=O)c2ccoc2C)cc(C(=O)OCC)c1	9%
COc1ccc(-c2csc3nc(Cc4ccccc4)oc(=O)c23)cc1OC	i
Cc1ccc(NS(=O)(=O)c2ccc(NC(=O)c3ccc([N+](=O)[O-])c(C)c3)cc2)cc1	i
CN1CCN(c2ccc(NC(=O)c3ccc(-c4cccc([N+](=O)[O-])c4)o3)cc2)CC1	8.7µg/mL*

# Part of the list above, field by field.
mol: Cc1cc(C)c(S(=O)(=O)n2cc(Br)cn2)c(C)c1
- Mtb growth: 8%

mol: CCOc1ccc(NC(=O)C(C)Sc2nnc(-c3ccccc3)n2C)cc1 (stereo not given)
- Mtb growth: i

mol: CCOC(=O)c1ccccc1NC(=O)C1CC(=O)N(c2ccc(OC)cc2)C1 (stereo not given)
- Mtb growth: i

mol: COc1ccc(-n2c(SCC(=O)NCc3ccccc3)nnc2-c2ccncc2)cc1
- Mtb growth: i

# Continuation.
SMILES	Mtb growth
O=C1CN(S(=O)(=O)c2ccccc2)c2ccccc2N1	i
CS(=O)(=O)N(CC(=O)Nc1ccc(C(N)=O)cc1)c1ccccc1Br	i
O=S(=O)(NCc1ccccc1)c1ccc(NS(=O)(=O)c2ccccc2)cc1	i
COc1ccc(C(=O)Nc2ccc(F)c(Cl)c2)cc1Cl	3%
CCN1CCCC1CNS(=O)(=O)c1ccc(C(=O)Nc2ccccc2)cc1 (stereo not given)	i
COc1ccccc1NC(=O)COc1ccc(Br)cc1C	i
CS(=O)(=O)N(CC(=O)N1CCc2ccccc2C1)c1ccccc1Cl	i
CN(c1cccc(NC(=O)CN(c2ccc(Br)cc2)S(=O)(=O)c2ccccc2)c1)S(C)(=O)=O	i
CCc1nc(C)ccc1OCC(=O)O	i
Clc1ccc(COc2ccc(-c3cnc4ccccc4n3)cc2)cc1	0%
CCCCC(CC)C(=O)NCCCCNC(=O)C(CC)CCCC (stereo not given)	i
CCc1nnc(NC(=O)CSc2ccccn2)s1	i
COc1ccc(NC(=S)c2ccncc2)cc1	i
Cc1csc(SCCn2c(N3CCOCC3)nc3c2c(=O)[nH]c(=O)n3C)n1	i
CN(C)C=Nc1ccc(S(=O)(=O)N(C)c2nccs2)cc1	1%
O=C(CCC1CCCCC1)Nc1ccc(Cl)cc1	1%
CCC(=O)N1N=C2C3CCN(CC3)C2C1c1ccc(OC)cc1 (stereo not given)	i
COc1c(Cl)cc(C(=O)Nc2ccccc2C(=O)O)cc1Cl	i
C=CCSc1nc2c(c(=O)[nH]1)C(c1ccc([N+](=O)[O-])cc1)C1=C(CCCC1=O)N2 (stereo not given)	i
CCOC(=O)c1cc2c(C)nn(-c3ccccc3)c2s1	2%
O=[N+]([O-])c1ccc(CSc2nnc(-c3cccnc3)o2)cc1	25%
Cc1cccc(C(=O)Nc2ccc(Br)cc2F)c1[N+](=O)[O-]	i
CS(=O)(=O)N(CC(=O)Nc1ccccc1C(N)=O)c1cccc(C(F)(F)F)c1	i
COc1ccc(-c2nn(C)c(=O)c3ccccc23)cc1NC(=O)COc1cccc(C)c1	i
O=C(c1cccc(Cl)c1)N1CCN(Cc2cccc(F)c2)CC1	i
O=C(Nc1ccc(NC(=S)NC(=O)c2ccccc2[N+](=O)[O-])cc1Cl)c1ccco1	i
Cc1ccc(N2C(=O)CC(c3cn(C)c4ccccc34)C2=O)cc1 (stereo not given)	3%
Cc1cccnc1NC(=O)Nc1cccc(Cl)c1	i
COC(=O)c1ccc(NC(=O)c2cccc(C)c2[N+](=O)[O-])cc1	i
Cc1ccc(-n2nnnc2SCC(=O)Nc2nccs2)cc1Cl	i
CCNC(=O)COc1ccc(S(=O)(=O)NC(C)C)cc1	i
CC(C)c1ccc(C(=O)NCc2ccc(Cl)cc2)cc1	2%
COc1ccc(C2C(C#N)=C(N)Oc3n[nH]c(C)c32)cc1COc1ccccc1[N+](=O)[O-] (stereo not given)	i
CCCn1c2ccccc2c2nnc(SCc3ccc([N+](=O)[O-])cc3)nc21	4%
OCc1ccc(OCc2ccccc2F)c(Br)c1	i
c1cc2c(cc1CNc1ccc(N3CCCC3)cc1)OCO2	?
CC(=O)NS(=O)(=O)c1ccc(NC(=S)NC(=O)c2cccs2)cc1	i
CCOC(=O)C(C)Oc1ccc2c(=O)c(-c3ccc(Cl)cc3)coc2c1 (stereo not given)	i
O=C(CN1C(=O)CCC1=O)Nc1ccc(Br)c(Cl)c1	i
COc1cc(OC)c(C(=O)Nc2ccccc2C(F)(F)F)cc1OC	i
Cc1ccc(/C=C(/C#N)c2ccc3c(c2)OCO3)cc1[N+](=O)[O-]	i
O=C(CCN1C(=O)c2cccc3cccc(c23)C1=O)Oc1ccc2c(c1)OCO2	27%
CS(=O)(=O)N1CCC(N2CCOCC2)CC1	1%
COc1ccc(NC(=S)Nc2ccccc2-c2ccccc2)cc1OC	i
Cc1nc(-c2ccc(NC(=O)c3cccnc3)cc2)cs1	i
CCOc1ccc(C(=O)Nc2ccccc2N2CCN(C(=O)C(C)C)CC2)cc1[N+](=O)[O-]	20%
O=C(O)CCCC(=O)Nc1ccc(C(=O)NCc2cccnc2)cc1	i
CC(C)Oc1ccc(C(CCN2C(=O)CCC2=O)c2ccccc2)cc1 (stereo not given)	i
CC1(C)CC(=O)C2=C(C1)NC(SCC(=O)NC1CCCCC1)=C(C#N)C2c1cccc([N+](=O)[O-])c1 (stereo not given)	5%
Cc1ccc(OCc2cccc([N+](=O)[O-])c2)c(C)c1	5%
CN(CCc1ccccn1)Cc1cccc(Cl)c1	3%
COc1c(C)cc(Br)cc1C(=O)Nc1sc2c(c1C(N)=O)CCCCC2	i
COc1ccc(CSc2nnc(Cc3cccs3)n2C)cc1	4%
Cc1nc2ccc(NC(=O)C(F)(F)F)cc2s1	i
COc1ccc(-n2c(SC(C)C(=O)N3CCOCC3)nc3ccccc3c2=O)cc1 (stereo not given)	i
COc1ccc(N(CC(=O)Nc2ccccc2C(N)=O)S(=O)(=O)c2ccc(C)cc2)cc1OC	i
O=C(Nc1ccc(C(F)(F)F)cc1)c1ccncc1	i
COc1ccc(N2CCN(C(=O)c3ccc(Br)o3)CC2)cc1	3%
CN(c1cccc(NC(=O)CN(c2cccc(Cl)c2)S(=O)(=O)c2ccc(Cl)cc2)c1)S(C)(=O)=O	i
CCC(C(=O)Nc1nnc(C2CCCCC2)s1)c1ccccc1 (stereo not given)	i

# Molecules shown so far containing a cyano group, in the order listed:
SMILES	Mtb growth
N#Cc1ccccc1NC(=O)CCCc1ccccc1	i
COc1ccc(C2C(C#N)=C(N)Oc3n[nH]c(C)c32)cc1COc1ccccc1[N+](=O)[O-] (stereo not given)	i
Cc1ccc(/C=C(/C#N)c2ccc3c(c2)OCO3)cc1[N+](=O)[O-]	i
CC1(C)CC(=O)C2=C(C1)NC(SCC(=O)NC1CCCCC1)=C(C#N)C2c1cccc([N+](=O)[O-])c1 (stereo not given)	5%

# (listing goes on)
canonical_smiles,Mtb growth
CC(C)(Oc1ccc(Cl)cc1)C(=O)Nc1ccc(OCc2ccccc2)cc1,i
O=C(Nc1ccccc1C(=O)N1CCOCC1)c1ccccc1Cl,i
S=C(NCc1ccc(Cl)cc1)Nc1ccc(Br)cn1,43%
COCC(=O)Nc1ccccc1C(=O)Nc1cccc(Cl)c1,i
N#CCSc1nc(-c2cccnc2)ccc1C(=O)O,i
O=C(NC(=S)Nc1nc(-c2cccc3ccccc23)cs1)c1ccc(F)cc1,i
COc1ccc(CCNC(=O)CSc2nnc(NC(=O)c3ccccc3OC)s2)cc1OC,i
Cc1ccc(S(=O)(=O)Nc2ccccc2C(=O)N2CCCC2)cc1[N+](=O)[O-],i
CN(C)CC(=O)N1c2ccccc2Sc2ccc(Cl)cc21,0%
CCC(=O)c1ccc(N2CCN(C(=O)COc3ccc(F)cc3)CC2)c(F)c1,1%
COc1ccccc1CNc1ccc(N(C)C)cc1,19%
CCCCN1C(=O)c2ccc(C(=O)Nc3nccs3)cc2C1=O,i
COC(=O)c1ccccc1NC(=O)c1c(-c2c(Cl)cccc2Cl)noc1C,i
Cc1cccc(N2CC(O)=C(c3nc4ccccc4s3)C2=N)c1,i
O=C(Nc1ccc(Cl)cc1O)C1CCC(N2C(=O)C3C4CCC(C4)C3C2=O)CC1 (stereo not given),i
CNc1nnc(CSc2nc(C)cc(C)n2)s1,i
Cc1ccc(Cl)cc1N(CC(=O)Nc1ccccc1C(=O)N1CCCC1)S(C)(=O)=O,i
CCC(C)c1ccccc1NC(=O)c1cccc(Cl)c1Cl (stereo not given),37%
CCn1c(SCC(=O)Nc2ccc3c(c2)OCCO3)nnc1-c1cccs1,1%
COc1ccc(-c2[nH]ncc2-c2nc(C)cs2)c(O)c1,1%
Cc1ccc(SCC(=O)Nc2ccc(F)cc2F)cc1,i
O=C(OCc1c(Cl)cccc1Cl)c1cc2ccccc2oc1=O,i
O=C(NC(=S)Nc1ccccc1Cl)C1CC1,3%
CCN(CC)C(=O)COc1cc2oc(=O)c3c(c2cc1Cl)CCC3,3%
COc1ccc(C(C)C)cc1S(=O)(=O)NCCc1c(C)[nH]c2c(C)cccc12,i
Cc1c(Cl)cccc1NC(=O)CN(c1ccccc1)S(=O)(=O)c1ccc(Cl)cc1,i
COC(=O)C(O)(c1ccc(NC(=S)NC(=O)c2ccccc2)cc1)C(F)(F)F (stereo not given),i
CCN1CCN(C(=O)c2ccccc2SC)CC1,i
CC1CN(CCOCCOc2ccccc2F)CC(C)O1 (stereo not given),i
CCC(Sc1nc2ccccc2s1)C(=O)Nc1ccc(Br)cc1 (stereo not given),i
Cc1cccc(C)c1NC(=O)CSc1nnc(-c2ccc([N+](=O)[O-])cc2)n1Cc1ccccc1,i
COc1ccc(C(=O)Nc2ccc(-c3ccc([N+](=O)[O-])cc3)cc2)c(OC)c1OC,i
O=C(NCc1ccccn1)c1cc2cc(Br)ccc2oc1=O,i
CCCc1cc(=O)[nH]c(SCC(=O)Nc2ccc(Cl)c(Cl)c2)n1,i
COc1cccc(OC)c1C(=O)NCc1ccc(CNC(=O)c2c(OC)cccc2OC)cc1,i
O=C(c1cnc(-c2ccccc2)nc1)N1CCOCC1,i
Cn1c(CSCc2ccc(Cl)cc2)nnc1SCC(=O)Nc1ccc(Br)cc1F,2%
O=C(O)c1cccc(S(=O)(=O)Nc2ccc(O)c(Sc3nc4ccccc4s3)c2)c1,i
O=C(Nn1cnnc1)c1csc2ccccc12,i
CCN1C(=O)C(CC(=O)N2CCN(C(c3ccccc3)c3ccccc3)CC2)N(CC)C1=O (stereo not given),i
COc1ccc(OCC(=O)Oc2ccc(Cl)cc2Br)cc1,i
Cc1ccccc1C(=O)NC(=S)N1CCC(C)CC1,7%
COc1ccc(NC(=O)c2ccc(COc3ccccc3)o2)c(OC)c1,?
O=[N+]([O-])c1cc(CN2CCN(c3ccccc3)CC2)c(O)c2ncccc12,6.1µg/mL*
CC(=O)Nc1ccc(/C(C)=N\NC(=O)CCN2CCCCC2)cc1,1%
COc1cccc(C(=O)Nc2ccc(NC(=O)C(C)C)c(OC)c2)c1,i
Cc1cc(Cl)ccc1OCc1nc(-c2ccc([N+](=O)[O-])cc2)no1,4%
CCC(C(=O)Nc1sc(C(=O)OC(C)C)c(C)c1C(=O)OC(C)C)c1ccccc1 (stereo not given),14%

# Rewritten as labelled records: part of the list above
mol: COc1cccc(C(=O)Nc2ccc(NC(=O)C(C)C)c(OC)c2)c1
- Mtb growth = i
mol: Cn1c(CSCc2ccc(Cl)cc2)nnc1SCC(=O)Nc1ccc(Br)cc1F
- Mtb growth = 2%

# Remaining list, next part
canonical_smiles,Mtb growth
O=C(COc1ccc2ccccc2c1)Nc1nc2ccc(Cl)cc2s1,8%
CCOc1cc(C(=O)NC2CCCCCCC2)cc(OCC)c1OCC,i
O=C1CCC(=O)N1CCC(c1ccc(F)cc1)c1ccco1 (stereo not given),i
CC1CCCN(C(=O)C(C)Oc2cccc(Cl)c2)C1 (stereo not given),i
COc1ccc(S(=O)(=O)N2CCC(N3CCCC3)CC2)cc1,i
CCOCCCNc1nc2ccccc2[nH]1,i
COC(=O)c1ccc(OCC(=O)Nc2cc(OC)ccc2OC)c(OC)c1,i
C=CCNCc1cc(OC)c(OC2CCCC2)cc1Cl,1%
Cc1ccc2nc(-c3cccc(NC(=S)NC(=O)c4ccccc4)c3)oc2c1,i
O=C(Nc1cccc(C(=O)O)c1)/C(=C\c1ccc2c(c1)OCO2)NC(=O)c1ccccc1Cl,?
COc1ccc(CSc2nnc(C)s2)cc1,i
Cc1ccccc1-c1nnc(SCC(=O)Nc2ccc(Br)c(C)c2C)n1C,i
O=C(NCc1ccccc1F)c1cccnc1,i
Cc1cc(C)c2nc(NC(=O)c3cccnc3)sc2c1,i
CCCC(C)NS(=O)(=O)c1ccc(OC)c(C)c1 (stereo not given),i
CC1CCCCN1C(=O)c1ccccc1N (stereo not given),i
